# Mtb H37Rv: Confirmatory growth inhibition assay against Mycobacterium tuberculosis H37Rv, potency (AID 1949). 100,000 tested, 1.6% active. inhibition, % at 10 µg/mL; hits with a dose series show IC50 in µg/mL. most inactive calls were filed without a number and no value below 0 was filed;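 active = confirmed in a dose series; inconclusive = about 50% or more but not retested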;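 note: bacteria grown 7 days with compound before Alamar blue readout; 0% = untreated bacteria and 100% = reference antibiotic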
# Numbers without * were called inactive; i = inactive; ? = inconclusive.
SMILES,Mtb H37Rv
CCc1ccc(NC(=O)C2(C)Cc3ccccc3C(=O)O2)cc1 (centres undefined),i
COc1ccc(-c2csc(Nc3ccc(C)cn3)n2)cc1C,2.1%
O=C(O)c1ccc(NC(=O)C2CCN(S(=O)(=O)c3ccccc3)CC2)cc1,i
CC(C)c1ccccc1OCC(=O)Nc1nccs1,i
Cc1ccc2nc(NC(=O)C3CCCC3)sc2c1,3.1%
CS(=O)(=O)N(CC(=O)Nc1cc(Cl)ccc1Cl)c1ccc2c(c1)OCCO2,i
COCCN1CCn2c(nc3cc([N+](=O)[O-])ccc32)C1,i
O=C(CCC1CCCC1)Nc1ccccc1[N+](=O)[O-],i
Oc1ccc(C(=S)N2CCN(c3ccccc3F)CC2)cc1,i
Cc1cc2c(=O)n(C)c(SCC(=O)c3cc4ccccc4o3)nc2s1,i
CCOC(=O)c1cnc2[nH]c3ccccc3n2c1=O,i
CCn1c(SCC(=O)N(C2CCCCC2)C2CCCCC2)nnc1-c1cc2cccc(OC)c2o1,i
O=C(NCCc1ccccc1)C1CCCC1,i
O=C(CN(c1ccc(Br)cc1)S(=O)(=O)c1ccccc1)NC1CC2CCC1C2 (centres undefined),i
Cc1ccccc1C(=O)Nc1ccc(C(F)(F)F)cc1,i
COc1ccc([N+](=O)[O-])cc1NC(=O)CN(c1ccc(C)cc1)S(=O)(=O)c1ccc(F)cc1,i
CCOC(=O)C(=CNCCC(=O)O)C(=O)OCC,0.4%
COCc1nnc(NC(=O)CCc2ccccc2)s1,i
C=CCn1c(SCC(=O)Nc2cccc(Cl)c2C)nnc1C(O)c1ccccc1 (centres undefined),i
NC(=O)CSc1nc2ccc(I)cc2c(=O)n1Cc1ccccc1,i
COc1cc(C(c2c(C)[nH]c3ccccc23)c2c(C)[nH]c3ccccc23)cc(OC)c1OC(C)=O,14.5%
CCOc1ccc2ccccc2c1C1NC(=O)N(C)C(C)=C1C(=O)OC (centres undefined),i
CCOc1cc2c3c(c1)C1(Nc4ccccc4CO1)C(=O)N3C(C)(C)CC2C (centres undefined),3.8%
O=C(Nc1ccccc1N1CCCCC1)c1cccs1,15.9%
O=C(C1CCN(S(=O)(=O)c2cc(Cl)ccc2Cl)CC1)N1CCC(Cc2ccccc2)CC1,5.4%
Cc1cccc(NC(=O)CN(c2cc(C)ccc2C)S(=O)(=O)c2ccccc2)c1,i
CS(=O)(=O)N(CC(=O)Nc1cccc([N+](=O)[O-])c1)c1ccc(Br)cc1,6.0%
Cc1cc(OCC(=O)c2ccc(F)cc2)c2c(C)c(C)c(=O)oc2c1,i
O=C(O)c1cccnc1SCC(=O)N1c2ccccc2CCc2ccccc21,i
CCCCNS(=O)(=O)c1cc2c3c(cccc3c1)C(=O)NC2=O,i
CCC(C)NCCOc1ccc(F)cc1 (centres undefined),i
COc1ccccc1C(=O)Nc1ccccc1C#N,i
O=C(NC(=S)Nc1ccccc1Br)c1ccccc1[N+](=O)[O-],0.2%
CCc1cc(C(=O)OC)c(NC(=O)c2cc(Br)cs2)s1,i
CCOc1ccccc1CN(CCc1ccc2c(c1)OCO2)Cc1cccnc1,i
COc1c(C(=O)N2CCCC2)ccc2ccccc12,3.9%
Cn1c(SCC(=O)Nc2ccc(Cl)cc2)nnc1-c1ccc(Br)cc1,i
CC(=O)c1cccc(NC(=O)C2CC(=O)N(c3ccc(Cl)cc3)C2)c1 (centres undefined),i
COc1ccc(OC)c(NC(=O)c2ccccc2C(F)(F)F)c1,i
O=C(NC(=S)Nc1ccccc1F)c1ccc(Br)o1,0.3%

# Ordered by molecular weight (low to high): six of the compounds above.
SMILES,Mtb H37Rv
CCC(C)NCCOc1ccc(F)cc1 (centres undefined),i
COc1ccccc1C(=O)Nc1ccccc1C#N,i
CCOc1ccc2ccccc2c1C1NC(=O)N(C)C(C)=C1C(=O)OC (centres undefined),i
Cc1cccc(NC(=O)CN(c2cc(C)ccc2C)S(=O)(=O)c2ccccc2)c1,i
Cn1c(SCC(=O)Nc2ccc(Cl)cc2)nnc1-c1ccc(Br)cc1,i
O=C(C1CCN(S(=O)(=O)c2cc(Cl)ccc2Cl)CC1)N1CCC(Cc2ccccc2)CC1,5.4%

# At a glance, 2 of the compounds above:
SMILES,Mtb H37Rv
COc1ccc(OC)c(NC(=O)c2ccccc2C(F)(F)F)c1,i
O=C(NC(=S)Nc1ccccc1F)c1ccc(Br)o1,0.3%

# Remaining list, next part
SMILES,Mtb H37Rv
COc1ccc(C2C(Oc3ccccc3C)C(=O)N2Cc2ccc(F)cc2)cc1OC (centres undefined),3.4%
Cc1ccc(-c2csc(NS(=O)(=O)c3ccc(C)cc3)n2)cc1,i
S=c1[nH]nc(CCCOc2ccc(Cl)cc2Cl)o1,3.0%
COC(=O)c1ccc(NC(=O)c2cc(I)ccc2Cl)cc1,2.0%
CCc1cccc(CC)c1NC(=O)Cc1cccs1,i
CCc1nnc(NC(=O)c2ccccc2NC(=O)CSc2ccccc2)s1,i
CS(=O)(=O)N(CC(=O)NC1CCCCC1)c1ccc(Br)cc1,i
COc1ccc(NC(=O)C2CC(=O)N(c3ccccc3Cl)C2)cc1 (centres undefined),i
CC1=C(C(=O)OCc2ccccc2)C(c2ccc(Cl)cc2)C(C#N)=C(SCC(N)=O)N1 (centres undefined),4.5%
COc1ccc(N2CCN(C3CC(=O)N(c4cccc(C(F)(F)F)c4)C3=O)CC2)cc1 (centres undefined),i
Cc1c(Cl)cccc1NC(=O)COc1ccc(C(C)C)cc1,i
O=CN1CCN(c2nc(-c3ccccc3)cs2)CC1,i
CCOc1ccc(C(C)NC(=O)Nc2ccc(F)cc2F)cc1 (centres undefined),i
COc1ccc(N/C(N)=N\c2nc(C)c(C)c(=O)[nH]2)cc1,i
CCn1nc(C)c(N2C(=O)c3cccc4c([N+](=O)[O-])ccc(c34)C2=O)c1C,18.4%
Cc1ccc(OCC(=O)Nc2cccc(Cl)c2)cc1C,i
COc1ccc(OC)c(N(CC(=O)Nc2ccc(C)c(C)c2)S(=O)(=O)c2ccccc2)c1,i
O=C(Nc1ccccc1C(F)(F)F)c1cc(-c2ccncc2)nc2c(Cl)cccc12,3.8%
Cc1c(OC(=O)C(C)C)ccc2c(=O)c(-c3nc4ccccc4s3)coc12,0.1%
Cc1ccc(NC(=S)Nc2cc(Cl)ccc2Cl)cc1,i

# The list goes on; it opens with the 6 that closed the last part.
SMILES,Mtb H37Rv
CCn1nc(C)c(N2C(=O)c3cccc4c([N+](=O)[O-])ccc(c34)C2=O)c1C,18.4%
Cc1ccc(OCC(=O)Nc2cccc(Cl)c2)cc1C,i
COc1ccc(OC)c(N(CC(=O)Nc2ccc(C)c(C)c2)S(=O)(=O)c2ccccc2)c1,i
O=C(Nc1ccccc1C(F)(F)F)c1cc(-c2ccncc2)nc2c(Cl)cccc12,3.8%
Cc1c(OC(=O)C(C)C)ccc2c(=O)c(-c3nc4ccccc4s3)coc12,0.1%
Cc1ccc(NC(=S)Nc2cc(Cl)ccc2Cl)cc1,i
CCN(c1cccc(C)c1)S(=O)(=O)c1cccc2ccccc12,i
CC(C)NC(=O)c1ccccc1NC(=O)Cc1ccccc1,i
Cc1cc(C(=O)Nc2nnc(CC(C)(C)C)s2)ccc1[N+](=O)[O-],4.0%
CC(=O)Oc1ccc(-c2csc(Nc3cccc(C(=O)O)c3)n2)cc1,i
CCOC(=O)N1CCN(C(=O)COc2ccc(Br)c(C)c2)CC1,i
COc1cccc(NC(=O)CN(c2ccc(Br)cc2)S(C)(=O)=O)c1,i
COC(=O)N1N=C(C2CCCCC2)CC1(O)C(F)(F)F (centres undefined),i
Cc1ccc(Nc2nc(-c3sc(C)nc3C)cs2)nc1,i
O=C(NC(=S)Nc1cccc(-c2nc3ccccc3s2)c1)c1ccc(Br)cc1,i
COc1ccc(C)cc1NS(=O)(=O)c1ccc(NS(C)(=O)=O)cc1,i
Cc1cc(Cl)c(OCCN2CCCC(C)C2)c(Br)c1 (centres undefined),2.3%
CCOc1ccc(S(=O)(=O)Nc2ccc3oc4c(c3c2)CCCC4)cc1,i
COc1ccccc1C(=O)N1CCN(S(=O)(=O)c2ccc(C)cc2)CC1,i
O=C(NCc1ccccc1)C1CC2CCCC(C1)C2=O (centres undefined),i
O=C(Cc1ccccc1Cl)NCc1cccs1,i
CCCC(CCC(=O)NC1CCCCC1)C(=O)O (centres undefined),i
Cc1ccccc1C(=O)Nc1ccc(C(=O)OC(C)C)cc1,i
Cc1cccc(NC(=O)CSc2ncnc3sc4c(c23)CCC(C)C4)c1 (centres undefined),i
NC(=O)CSc1nc(-c2ccccc2)c(-c2ccccc2)[nH]1,i
C=CCc1cc(Cl)ccc1OCCN1CC(C)OC(C)C1 (centres undefined),i
CN(CCCC(=O)NCc1ccco1)S(=O)(=O)c1ccccc1,i
CCOc1cc(C(=S)N2CCCCC2)ccc1OCC(=O)NCc1ccccc1,3.7%
O=C(COc1ccc2c(=O)c(Oc3ccccc3Cl)coc2c1)Nc1ccc(Cl)cc1,i
O=C(O)c1cccc(NS(=O)(=O)c2ccc(I)cc2)c1,i
COc1cc(S(=O)(=O)N(C)C)ccc1Br,i
COc1cc2[nH]c(=S)n(-c3ccccc3)c(=O)c2cc1OC,i
Cc1ccc(NC(=O)Cc2cccc3ccccc23)c([N+](=O)[O-])c1,2.6%
COc1ccc(NS(=O)(=O)c2ccc3c(c2)OCCO3)cc1,i
O=C(CN(c1ccc(F)cc1)S(=O)(=O)c1ccc2c(c1)OCCO2)Nc1cccc(Cl)c1,i
CC(=O)c1cccc(NC(=O)CSc2nc(-c3ccc(F)cc3)cs2)c1,i
O=C(O)c1ccc(NC(=O)c2cn(-c3ccccc3)nc2-c2cc3ccccc3oc2=O)cc1,0.7%
CCOc1ccc(C(=O)CSc2nnc(-c3ccncc3)n2-c2ccc(Br)cc2)cc1,i
COC(=O)c1c(NC(=O)C(C)Oc2cccc(C)c2C)sc2c1CCC2 (centres undefined),1.6%
O=S(=O)(c1ccc(Cl)c(Cl)c1Cl)n1cnc2ccccc21,i
Cc1c(C(=O)Nc2sc3c(c2C(N)=O)CCCC3)oc2ccccc12,i
Nn1c(Nc2ccccc2)nc2sc3c(c2c1=O)CCC3,?
CSc1ccccc1NC(=O)c1cnccn1,i
C/C(=N\OC/C(O)=C(\C#N)c1nc2ccccc2[nH]1)c1ccc(Br)cc1,4.1%
O=C(NC(=O)C(F)(F)F)Nc1ccc(F)c(F)c1,i
O=c1[nH]c(=O)n(Cc2c(Cl)cccc2Cl)cc1F,i
COc1cc(C2CC(=O)NC(SCC(=O)Nc3ccccc3)=C2C#N)cc(OC)c1OC (centres undefined),i
CS(=O)(=O)N(CC(=O)NCCSCc1ccccc1)c1cccc(Br)c1,i
O=C(CCN1C(=O)c2cccc3cccc(c23)C1=O)N1CCN(c2cccc(Cl)c2)CC1,i
Cc1ccc(C(=O)Nc2nnc(C(F)(F)F)s2)o1,9.1%
COC(=O)c1ccccc1NC(=O)NC(C)(C(F)(F)F)C(F)(F)F,i
CCOC(=O)c1c(-c2ccccc2)csc1NC(=O)c1nn(CC)cc1Br,1.2%
O=c1c2ccccc2nc(-c2ccc(-c3ccccc3)cc2)n1-c1ccncc1,i
O=S(=O)(NCc1ccccn1)c1ccc(F)c(Cl)c1,i
Cc1ccc(C)c(NC(=O)C(CC(=O)O)C(C)c2ccccc2)c1 (centres undefined),1.1%
CC(C)(C)C(=O)Nc1cccc(C(=O)c2cccc(NC(=O)C(C)(C)C)c2)c1,i
Cc1cc(C(=O)Nc2ccccc2Cc2ccccc2)cs1,i
CCOC(=O)c1c(NC(=O)CN2CCOCC2)sc2c1CCCC2,i
COc1ccc(N2CCN(S(=O)(=O)c3ccc(Oc4ccccc4OC)cc3)CC2)cc1,i
Cc1ccc(C(C)(C)C)c(SCC(=O)Nc2nccs2)c1,2.5%
CCc1nnc(NC(=O)OCc2ccccc2)s1,i
CC1(C)NC(=O)N(CCOCCOc2ccccc2)C1=O,i
CCOc1ccc(OCCOc2ccc(C)cc2OC)cc1,i
CCOc1ccc(N2C=C(C(=O)OC)C(c3ccccc3Cl)C(C(=O)OC)=C2)cc1,i
Nc1cc(=O)[nH]c2nnc(SCc3ccc(Br)cc3)n12,i
Cc1ccc(CNC(=O)c2cccc(I)c2)cc1,1.2%

# Other results follow.
SMILES,Mtb H37Rv
O=c1cc(CSc2nc3sc4c(c3c(=O)n2Cc2ccco2)CCC4)[nH][nH]1,i
COc1ccc(-c2nc3nc(C)cc(=O)n3[nH]2)cc1,i
CCc1ccccc1NC(=O)c1ccccc1NC(=O)c1ccc(OC)cc1,i
CCC(CC)C(=O)Nc1ccc(Br)cc1C,28.4%
Cc1nn(C)cc1CNC(=O)Nc1cccc(Cl)c1,i
Cc1ccc(-n2c3c(c(=O)[nH]c2=O)C(NC(=O)c2ccc(Cl)cc2)(C(F)(F)F)C(=O)N3)cc1C (centres undefined),i
CCN1CCN(C(=S)c2ccc(Cl)cc2)CC1,i
CC(=O)c1cccc(NC(=O)COc2ccc(S(=O)(=O)NCc3ccccc3)cc2Cl)c1,i
O=C(Nc1ccc(N2CCCC2=O)cc1)c1cccnc1,i
CC(C)(C)c1ccc(NC(=O)C(=O)NCCCn2ccnc2)cc1,i
Cc1cccc(C)c1OCc1nnc(SCC(=O)NCc2ccccc2)o1,1.9%
Nc1cc(=O)[nH]c(SCC(=O)c2cccs2)n1,i
CCn1nc(C)c(NC(=S)NCc2ccc(Cl)cc2)c1C,i
c1ccc(Cc2nnc3n2N=C(c2ccccc2)CS3)cc1,2.5%
Cc1ccccc1OCc1nnc(SCC(=O)Nc2ccc(N3CCOCC3)c(Cl)c2)n1C,10.4%
O=c1[nH]c(=O)n(Cc2ccccc2)c2c1C(C(F)(F)F)(C(F)(F)F)N=C(c1ccco1)N2,i
Clc1cc(Br)ccc1OCCCCN1CCOCC1,i
CC1Cc2ccccc2N1C(=O)Nc1ccc2c(c1)nnn2C (centres undefined),1.6%
Cc1cccc2sc(NC(=O)c3cccc(Br)c3)nc12,1.3%
COc1cc(CNCCc2ccccc2)cc(OC)c1OC,i
Cc1ccccc1C(=O)NC(=S)Nc1ccc(S(=O)(=O)Nc2ccccc2)cc1,8.2%
O=C(Oc1c(I)cc(Cl)c2cccnc12)N1CCCCC1,7.6%
NC(=O)c1cn(-c2ccccc2)nc1-c1ccccc1,i

# Only part of the results is shown (hit frequency here may not be typical).
